Source: PubChem
T cruzi inh: T. cruzi replication inhibition | T. cruzi beta-gal in NIH3T3, luminescence, 90 h | inhibition, % (test concentration not listed) | actives 1.4% (n = 300,000) | AID 1885;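 active means mean inhibition across valid replicates above about 55%, limit read from the data; inconclusive means mean below that limit but half or more replicates reach it; inactive means mean below it, under half of replicates reach it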;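 further: signal also drops with host cell toxicity which is not excluded here; 0% = plate median of DMSO wells and 100% = zero luminescence signal; higher percent means less beta-gal luminescence so fewer parasites; stock transfer was 50 nL into about 50 µL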
RanGTP-Impb inh: inhibitors of RanGTP-importin-beta interaction, primary screen, biochemical, FRET, CFP-Ran, YFP-importin-beta, homogeneous. cell-free CFP-Ran/YFP-importin-beta FRET ratio. inhibition, % (no concentration beside the values). actives 1.1% (n = 300,000);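 active means most replicates above 15%; inconclusive means exactly half above 15%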;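 further: 0% = DMSO wells and 100% = Ran loaded with GDP instead of GTP; wells of about 40 µL received 100 nL stock; the first replicate is given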
FGF22 binding: binders of recombinant human FGF22 by thermal shift; actives 1.5% (n = 340,000); calls only at 9.99 µM; SYPRO orange fluorescence; percent of sucrose octasulfate shift, DMSO zero; AID 651658;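 active means melting point raised past a set limit in the mean and every replicate; inconclusive means no clear call; three in four hits are not shown here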
Target sequence (Q9HCT0 whole entry, looked up): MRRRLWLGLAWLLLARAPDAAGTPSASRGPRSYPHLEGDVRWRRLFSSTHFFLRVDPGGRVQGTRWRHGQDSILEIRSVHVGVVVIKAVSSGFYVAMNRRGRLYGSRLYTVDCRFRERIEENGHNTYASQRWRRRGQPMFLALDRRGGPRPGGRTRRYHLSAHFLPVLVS
Beta apoptosis: beta cell apoptosis inhibition. AID 435005. actives 0.8% (n = 300,000). INS-1E cytokine-induced death, ATP luminescence, 48 h; percent of positive-control rescue, neutral wells zero. protection from apoptosis, % (no concentration beside the values);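 active means all replicates at 75% or more, or half of them and the mean; inconclusive means half reach 75% but not the mean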;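 further: 0% = cytokine-treated negative control wells and 100% = positive control rescue; higher means more ATP so stronger rescue from cytokine killing; wells of about 40 µL received 100 nL stock; the first replicate is given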
rRNA inh HTS: inhibitors of bacterial rRNA selective over humanized ribosomes; GFP signal change (wild-type ribosome), % (no concentration beside the values); E. coli WT GFP vs humanized-ribosome RFP mutants, fluorescence, 24 h; stronger effect = lower value; DMSO median 0, no signal -100; actives 1.6% (n = 350,000);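 active means significant combined selectivity score with lowered wild-type GFP, culture density cut under 30%, mutant RFP and density less affected; inactive means any of these conditions unmet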; further: one replicate is shown; some compounds called inactive have numbers as strong as hits
Calb FLC: C. albicans growth modulation with fluconazole | C. albicans CaCi-2 (fluconazole-resistant clinical isolate) + fluconazole, Alamar Blue growth, 48 h | growth inhibition, % (no concentration beside the values) | actives 0.57% (n = 300,000) | AID 1979;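 active means most replicates above 75%; inconclusive means exactly half above 75%; inactive means most below 75%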;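 further: all wells also contain fluconazole at 8 µg/ml as a sub-toxic cotreatment; 0% = median of DMSO wells and 100% = median of geldanamycin control wells; wells of about 8 µL received 7.5 nL stock; the first replicate is given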
ALR H2O2 inh: blocks human ALR sulfhydryl oxidase activity; P55789; purified ALR, DTT oxidation, H2O2 HRP-luminol luminescence; inhibition, % (test concentration not listed); actives 3.8% (n = 290,000); AID 485317;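 active means mean and each replicate at 75% or more; inconclusive means only one of the two met; inactive means neither met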;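 further: stock transfer was 7.5 nL into about 7.5 µL; 0% = neutral wells and 100% = wells with inactivated enzyme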
Target sequence (P55789 whole entry, looked up): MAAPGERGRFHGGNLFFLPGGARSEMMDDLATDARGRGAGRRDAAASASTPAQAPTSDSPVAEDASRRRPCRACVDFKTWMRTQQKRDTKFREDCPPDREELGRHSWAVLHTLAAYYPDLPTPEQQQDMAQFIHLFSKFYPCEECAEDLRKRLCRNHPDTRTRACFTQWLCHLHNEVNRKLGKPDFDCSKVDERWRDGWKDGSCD
AF4-AF9 inh: MLL-AF4/AF9 protein interaction inhibition. actives 0.47% (n = 350,000). AlphaScreen, biotin-AF4 peptide binding to FLAG-AF9. inhibition, % at 10 µM. P42568;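 active means every replicate reaching a set inhibition limit, whatever the replicate mean, cut at about 25% in these data; inconclusive means mean inhibition reaches that limit but some replicates miss it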;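 further: 0% = plate neutral control median and 100% = total signal loss; the record names both 10 and 1 µM as test concentration; the first replicate is given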
Target sequence (P42568 whole entry, looked up): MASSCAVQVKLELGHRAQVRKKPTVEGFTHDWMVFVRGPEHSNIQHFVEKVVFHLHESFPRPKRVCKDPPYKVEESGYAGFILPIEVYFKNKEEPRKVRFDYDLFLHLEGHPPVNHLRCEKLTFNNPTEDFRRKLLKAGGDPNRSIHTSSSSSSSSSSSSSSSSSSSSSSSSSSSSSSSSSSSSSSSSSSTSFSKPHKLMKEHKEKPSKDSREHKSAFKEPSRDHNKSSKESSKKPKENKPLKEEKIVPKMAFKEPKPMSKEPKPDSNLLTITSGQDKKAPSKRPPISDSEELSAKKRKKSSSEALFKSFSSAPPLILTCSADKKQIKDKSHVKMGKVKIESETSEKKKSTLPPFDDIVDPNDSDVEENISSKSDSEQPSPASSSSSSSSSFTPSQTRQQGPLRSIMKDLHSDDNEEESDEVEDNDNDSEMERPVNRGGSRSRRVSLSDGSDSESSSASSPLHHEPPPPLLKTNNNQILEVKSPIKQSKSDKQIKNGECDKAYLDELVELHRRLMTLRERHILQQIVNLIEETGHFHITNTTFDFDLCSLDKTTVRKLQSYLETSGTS
rRNA inh HTS OD600: second read-out of rRNA inh HTS, no call of its own (marks repeat the call); OD600 change, %; measured here: OD600 growth;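 optical density of the mix in the first replicate; 0 = DMSO median and -100 = no signal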
rRNA inh HTS RFP: further read-out of rRNA inh HTS, marked with its call; RFP signal change, %; measured here: RFP humanized mutant strains;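 first replicate; 0 = DMSO median and -100 = no signal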
* hit, by the source's call; i = inactive; ? = inconclusive; · = no result given.

entry	SMILES	T cruzi inh	RanGTP-Impb inh	FGF22 binding	Beta apoptosis	rRNA inh HTS	rRNA inh HTS OD600	rRNA inh HTS RFP	Calb FLC	ALR H2O2 inh	AF4-AF9 inh
1	Nc1nc(SCc2ccccc2)[nH]c(=O)c1-c1ccccc1	-12.6	?	·	2.8	-7.5	-8.2	-1.5	?	-0.8	-29.8
2	Cc1[nH]nc2c1C(c1cccnc1)N(c1ccc(Br)cc1)C2=O (centres undefined)	49.5	0.7	·	-1.1	·	·	·	-0.9	-10.4	·
3	CC1=NN(C(N)=S)C(=O)C1N=Nc1ccc(Br)cc1 (centres undefined)	-30.7	-0.7	i	·	9.9	6.9	-0.8	-17.8	3.5	2.1
4	COc1cc(/C=N/NC(N)=O)ccc1OCC(=O)N1C(C)CCCC1C (centres undefined)	1.6	-2.8	i	-5.0	1.3	-3.6	-2.0	-4.0	-3.2	-0.4
5	COc1ccccc1/C=C/C=N/n1c(-c2ccco2)n[nH]c1=S	14.0	1.6	i	-4.3	-4.1	-3.0	10.3	-19.2	-7.0	-3.2
6	CC(NC(=O)Cc1ccc(-c2ccccc2)cc1)c1ccccc1 (centres undefined)	11.6	-1.7	·	-4.4	·	·	·	-7.7	-4.3	·
7	O=C([C@@H]1CCCN1C(=O)c1cccs1)N1CCN(S(=O)(=O)c2cccc(F)c2)CC1	·	·	i	-4.7	3.2	4.8	-1.6	·	-3.4	-0.8
8	Cn1cc(/C=C2\SC(=S)N(NC(=O)c3ccccc3Cl)C2=O)c2ccccc21	·	·	i	2.9	10.4	2.5	0.8	·	-10.0	1.1
9	Cc1nc2ccc(NC(=O)Cc3ccsc3)cc2s1	-11.7	2.8	·	·	·	·	·	6.2	-26.8	·
10	CC(C)(C)c1ccc(-c2nc(C#N)c(NCCCn3ccnc3)o2)cc1	47.9	3.9	i	-0.6	-46.8	-77.7	-11.5	20.0	-1.5	0.7
11	CCOC(=O)C1(CCOC)CCN(C(=O)Cc2ccsc2)CC1	-4.5	2.9	i	-1.9	-3.4	0.9	-2.2	-6.2	-1.5	-1.1
12	CC1CCN(S(=O)(=O)c2ccc3[nH]c(=O)c(=O)[nH]c3c2)CC1	-8.4	5.0	·	1.3	·	·	·	22.4	-1.9	·
13	Cc1ccc(S(=O)(=O)N(CC(=O)c2ccccc2)C(=O)N2CCN(C)CC2)cc1	-1.3	5.8	i	·	4.5	3.5	-0.4	-9.8	·	-0.5
14	COc1cccc(-n2nnnc2S(C)(=O)=O)c1	48.6	8.0	·	-67.9	·	·	·	104.7*	98.8*	·
15	CCOc1cccc(CNCc2ccc(C(=O)O)cc2)c1	-14.9	-1.1	i	0.6	13.6	11.6	-0.2	-12.2	-4.1	0.2
16	O=C(Cc1cccc(NC(=O)C2CCCN(C(=O)C3CCCCC3)C2)c1)Nc1cccc(C(=O)N2CCCC2)c1 (centres undefined)	·	·	i	0.3	-19.1	-10.1	-0.3	·	-1.2	-1.6
17	Cc1ccc(C)c(-n2cc(CNCCc3cnccn3)c(-c3ccccc3)n2)c1	13.5	2.8	i	-1.8	-3.3	-12.9	6.5	-2.2	-4.3	5.7
18	C=CCc1c(C)nn(CC(=O)O)c1-c1ccccc1	-10.5	6.0	·	-0.1	·	·	·	3.7	2.9	·
19	O=C(NC1CCCCC1)C1CCC(=O)N(Cc2cccc(C(F)(F)F)c2)C1 (centres undefined)	-1.4	3.4	i	-4.7	4.1	13.4	4.0	-4.2	0.9	-0.9
20	CCc1nnc(NC(=O)CCN2C(=O)CCC2=O)s1	-5.1	4.1	i	-1.9	6.3	6.3	0.6	1.1	-2.5	0.6

Complete entries, looked up by structure.
`COc1ccccc1/C=C/C=N/n1c(-c2ccco2)n[nH]c1=S` in the list: T cruzi inh: 14.0; RanGTP-Impb inh: 1.6; FGF22 binding: i; Beta apoptosis: -4.3; rRNA inh HTS: -4.1; rRNA inh HTS OD600: -3.0; rRNA inh HTS RFP: 10.3; Calb FLC: -19.2; ALR H2O2 inh: -7.0; AF4-AF9 inh: -3.2
`O=C(Cc1cccc(NC(=O)C2CCCN(C(=O)C3CCCCC3)C2)c1)Nc1cccc(C(=O)N2CCCC2)c1` (centres undefined) in the list: T cruzi inh: ·; RanGTP-Impb inh: ·; FGF22 binding: i; Beta apoptosis: 0.3; rRNA inh HTS: -19.1; rRNA inh HTS OD600: -10.1; rRNA inh HTS RFP: -0.3; Calb FLC: ·; ALR H2O2 inh: -1.2; AF4-AF9 inh: -1.6
`CC1CCN(S(=O)(=O)c2ccc3[nH]c(=O)c(=O)[nH]c3c2)CC1` in the list: T cruzi inh: -8.4; RanGTP-Impb inh: 5.0; FGF22 binding: ·; Beta apoptosis: 1.3; rRNA inh HTS: ·; rRNA inh HTS OD600: ·; rRNA inh HTS RFP: ·; Calb FLC: 22.4; ALR H2O2 inh: -1.9; AF4-AF9 inh: ·

Four entries out of the list, sorted by count of non-hydrogen atoms, largest number first.
entry	SMILES	T cruzi inh	RanGTP-Impb inh	FGF22 binding	Beta apoptosis	rRNA inh HTS	rRNA inh HTS OD600	rRNA inh HTS RFP	Calb FLC	ALR H2O2 inh	AF4-AF9 inh
16	O=C(Cc1cccc(NC(=O)C2CCCN(C(=O)C3CCCCC3)C2)c1)Nc1cccc(C(=O)N2CCCC2)c1 (centres undefined)	·	·	i	0.3	-19.1	-10.1	-0.3	·	-1.2	-1.6
13	Cc1ccc(S(=O)(=O)N(CC(=O)c2ccccc2)C(=O)N2CCN(C)CC2)cc1	-1.3	5.8	i	·	4.5	3.5	-0.4	-9.8	·	-0.5
6	CC(NC(=O)Cc1ccc(-c2ccccc2)cc1)c1ccccc1 (centres undefined)	11.6	-1.7	·	-4.4	·	·	·	-7.7	-4.3	·
11	CCOC(=O)C1(CCOC)CCN(C(=O)Cc2ccsc2)CC1	-4.5	2.9	i	-1.9	-3.4	0.9	-2.2	-6.2	-1.5	-1.1

(more compounds)
entry	SMILES	T cruzi inh	RanGTP-Impb inh	FGF22 binding	Beta apoptosis	rRNA inh HTS	rRNA inh HTS OD600	rRNA inh HTS RFP	Calb FLC	ALR H2O2 inh	AF4-AF9 inh
21	CCc1nc2ccc(C)cc2c(C(=O)NC2CCCCC2C)c1C (centres undefined)	2.3	-2.9	·	2.5	·	·	·	4.3	-1.5	·
22	O=c1[nH]ncc2c3ccccc3n(Cc3ccccc3)c12	11.5	-2.9	·	-11.0	·	·	·	3.3	1.8	·
23	CCOC(=O)C(NC(=O)c1ccccc1)(OCc1ccccc1)C(F)(F)F (centres undefined)	-6.3	3.3	i	-2.6	9.9	7.5	-0.4	1.5	48.3	-1.4
24	CCC(C)(C)NC(=O)C(NS(=O)(=O)c1cccs1)c1ccccc1 (centres undefined)	-2.2	-5.0	i	-0.9	8.6	13.2	4.6	-3.3	·	-1.2
25	COc1ccc(CNC(=O)CSc2nnnn2C)cc1OC	-6.0	-1.0	i	·	9.7	4.8	-0.8	-3.8	-4.1	-0.4
26	CCCCn1c(N)c(N(CC)C(=O)c2ccc(N(C)S(=O)(=O)c3ccc(C)cc3)cc2)c(=O)[nH]c1=O	-8.9	-4.3	i	-2.7	3.7	10.6	-2.2	1.2	1.1	?
27	COc1ccc(-n2nc(C(=O)Nc3cc(OC)c(OC)c(OC)c3)c3ccccc3c2=O)c(OC)c1	1.1	5.8	i	4.3	18.1	19.2	-2.5	6.8	-2.8	5.4
28	CCOC(=O)N1CCN(C(=O)COc2ccc(Br)cc2Cl)CC1	6.0	-2.8	·	0.5	·	·	·	10.5	-4.1	·
29	COc1ccc(-n2c(COc3ccc(C)cc3)nnc2SCC(=O)O)cc1	-9.7	8.6	i	-2.6	-3.3	4.7	-1.6	19.6	-2.6	0.7
30	CCCCN(CCCNC(=O)Cn1nc(CC)n2c(cc3sc(C)cc32)c1=O)Cc1ccccc1	30.3	-2.7	i	1.3	4.1	7.7	-0.3	0.0	3.8	3.4
31	C/C(=N\NC(=O)Cc1ccc(O)cc1)c1cccnc1	-17.2	-0.8	i	-9.0	1.6	3.2	-2.6	-8.9	37.9	-0.9
32	COCCn1c(-c2ccccc2)nc2oc3cc(OC)ccc3c(=O)c2c1=O	5.2	3.9	·	0.2	·	·	·	-4.0	-2.5	·
33	CC(=O)Nc1cccc(C)c1	·	·	i	4.6	-1.3	1.5	0.2	·	6.8	·
34	CCOc1cc(C2C(C(=O)OC)=C(C)N=C3SCCC(=O)N32)ccc1OC(C)=O (centres undefined)	-1.2	0.3	·	-8.0	·	·	·	-14.4	0.3	·
35	CCS(=O)(=O)c1ccc(N)cc1	-8.4	-0.3	i	-10.2	8.9	4.6	-1.0	-11.1	-7.7	1.0
36	C[n+]1cccc(C(=O)Nc2ccccc2)c1	-1.8	-4.6	i	-2.3	3.6	9.7	0.3	-14.9	-5.0	-2.1
37	CC(C)CNC(=O)COc1cccc(C(=O)NCc2ccccc2)c1	-23.7	0.7	i	-3.7	16.8	8.0	4.5	33.7	-3.3	-2.2
38	CC(C)CNC(=O)c1ccccc1NC(=O)c1ccc(CN2CCOCC2)cc1	-4.1	3.3	i	-5.3	5.4	8.9	7.6	3.2	-25.0	7.4
39	O=C(Nc1cccnc1)Nc1cccc([N+](=O)[O-])c1	-1.2	-1.2	i	-1.3	-7.8	2.2	0.3	2.7	-3.3	1.6
40	COc1cccc([C@@H]2Oc3ccc(OC)cc3C(=O)[C@H]2OC(=O)N[C@H](C)C2CCCCC2)c1	25.8	-0.4	·	0.9	·	·	·	-1.6	·	·
41	C/C(=N\NC(=O)c1cccc(S(=O)(=O)N2CCCC2)c1)c1ccccc1F	-1.6	-0.6	i	·	-1.5	7.3	-3.1	-2.6	-1.4	0.1
42	Cc1cc(C(=O)CSc2ncn[nH]2)c(C)n1-c1cccc(S(=O)(=O)N2CCOCC2)c1	5.2	5.1	·	11.4	·	·	·	1.4	4.6	·
43	COCCNC(=O)CCn1nc(-c2ccc(Cl)cc2)c2ccccc2c1=O	-3.7	8.5	·	-6.1	·	·	·	-4.6	4.3	·
44	O=C(c1ccccc1F)N1CCN(Cc2cccc(Cl)c2)CC1	-0.8	0.8	·	0.1	·	·	·	-6.6	-15.2	·
45	CCOC(=O)C1CCCCN1Cc1cccc(OCc2ccccc2)c1 (centres undefined)	13.0	-3.1	i	-0.6	-25.1	-23.3	-4.9	-4.3	-39.3	-0.9
46	COC(=O)c1sccc1NC(=O)Nc1cc(C)cc(C)c1	·	·	i	0.0	7.7	0.5	2.1	-17.2	4.1	0.1
47	Cc1ccccc1NC(=S)N1CCN(c2ccccc2Cl)CC1	11.6	3.3	i	·	-6.0	-3.2	-0.8	-7.6	·	-0.2
48	CC(=O)Nc1ccc(C(=O)CN2C(=O)NC3(CCCCCC3)C2=O)c(F)c1	·	·	i	-0.9	7.5	9.3	0.9	·	-0.1	-4.9

Along the list, from the results shown:
FGF22 binding for entries 14–24: ·, i, i, i, ·, i, i, ·, ·, i, i
Calb FLC for entries 14–24: 104.7*, -12.2, ·, -2.2, 3.7, -4.2, 1.1, 4.3, 3.3, 1.5, -3.3
Beta apoptosis for entries 14–24: -67.9, 0.6, 0.3, -1.8, -0.1, -4.7, -1.9, 2.5, -11.0, -2.6, -0.9

Some of the compounds tested; count on the stated rates, not on these rows.
